# H5N1 antiviral: antiviral screen in MDCK cells, H5N1 avian flu; cytopathic effect, luminescence, 72 h; stronger effect = higher value; no value below 0 was filed and about half of the inactive calls have no number; reference of the scale not given here; inhibition, % at 50 µM; 96,000 tested, 0.07% active; AID 740; in the data active = inhibition above about 25%
# * marks the source's active call; other numbers are inactive results; i = inactive. This is a subset; rates above refer to the full screens.
# The first three records, to show the layout:
SMILES,H5N1 antiviral
O=C(NC1CCCCC1)NC1CCN(S(=O)(=O)Cc2ccccc2)CC1,i
CS/C(=N\S(=O)(=O)c1cccs1)Nc1ccc(N2CCOCC2)cc1,i
O=C(OC(C(=O)NC1CCCC1)c1cccnc1)C1=Cc2ccccc2OC1 (configuration not stated),0.7

# Main list, from the first entry:
SMILES,H5N1 antiviral
O=C(NC1CCCCC1)NC1CCN(S(=O)(=O)Cc2ccccc2)CC1,i
CS/C(=N\S(=O)(=O)c1cccs1)Nc1ccc(N2CCOCC2)cc1,i
O=C(OC(C(=O)NC1CCCC1)c1cccnc1)C1=Cc2ccccc2OC1 (configuration not stated),0.7
Oc1ccc(Cl)cc1-c1cc(C(F)(F)C(F)F)nc(-c2ccccc2)n1,i
CCOC(=O)c1c(C)n(OCc2ccccc2)c2ccc3nonc3c12,i
COc1ccc(N2CCN(CCCNC(=O)C3CCCN(S(=O)(=O)c4cnc[nH]4)C3)CC2)cc1 (configuration not stated),i
CCCS(=O)(=O)c1nc(S(=O)(=O)c2ccc(C)cc2)c(N2CCCC2)s1,0.6
Cc1cc(Cl)c(S(=O)(=O)Nc2ccon2)cc1OCC(=O)NC1CCCCC1,0.8
N#Cc1ccccc1NC(=O)CNc1ccccc1N1CCCCC1,i
CN(C)CCN1C(=O)c2oc3ccccc3c(=O)c2C1c1cccc(Br)c1 (configuration not stated),0.1
CSC(=NS(=O)(=O)c1ccccc1)SC,1.1
Cn1c(=O)c2c(-c3ccccc3)n(-n3cnnc3)cc2n(C)c1=O,2.6
Cc1cc(=O)oc2cc(OCC(=O)N3CCCc4ccccc43)ccc12,0.2
COc1ccc(-n2nnnc2SCC(=O)c2cccc(OC)c2)cc1,0.2
O=C(COc1cccc2ccccc12)NNC(=O)[C@@H]1CCCC[C@@H]1C(=O)O,i
COCCNP(=O)(c1ccccc1)c1nc2ccccc2s1 (configuration not stated),0.5
Cc1c(CCO)c(=O)[nH]n1C(=O)c1ccc(F)cc1,i
CCOc1ccc(C(=O)c2nc3c(n2O)CCCC3)cc1,i
OCCOCC#CCN1CCOCC1,0.1
CCOc1ccc(CCNC(=O)C2CC(=O)N(C3CCCC3)C2)cc1OCC (configuration not stated),0.4
CN1CCN(/C=N/c2sc3c(c2C#N)CCCCC3)CC1,0.6
N#CC(=C1N=c2ccccc2=N1)c1c(O)[nH]c2ccccc12,0.4
CCOC(=O)Cn1c(S(=O)(=O)Cc2ccccc2)nc2ccccc21,2.2
C=CCn1c(=O)c(C#N)cc2c(=O)n3ccccc3nc21,2.2
O=C(COC(=O)c1ccc2ccccc2c1)Nc1ncc(C(F)(F)F)cc1Cl,1.8
Cc1ccc(NC2=NCC(=O)N2c2ccc3c(c2)OCCO3)c(C)c1,i
Cc1nc(-c2cccc(S(=O)(=O)N3CC(C)CC(C)C3)c2)cs1 (configuration not stated),i
NS(=O)(=O)c1cccc2cccnc12,1.1
CCOC(=O)c1c(C)oc(/N=C/c2ccccc2O)c1C#N,1.5
O=S(=O)(NCCc1ccncc1)c1ccc(Br)cc1,0.7
O=c1[nH]c(=O)n(Cc2ccccc2)c2nc(-c3ccco3)cc(C(F)(F)F)c12,5.2
CCCCn1cnc2c([nH]c3ccccc32)c1=O,i
CCn1c(=O)c2c3c(sc2n2c(=S)[nH]nc12)CCC3,0.9
COc1cccc2c1C(=O)CC2NC(=O)C(F)(F)F (configuration not stated),i
Nc1ccc2nc(-c3ccccc3)[nH]c2c1,i
NC(=O)c1c(-c2cccs2)csc1N,2.1
CC1CCCCN1C(=O)CSc1nc(C2CC2)nc2c1cnn2-c1ccccc1 (configuration not stated),3.5
COc1ccc(-n2c(SC)nc3ccccc3c2=O)cc1,i
COCCOC(=O)C1=C(N)Oc2c(oc(CO)cc2=O)C1c1c(F)cccc1Cl (configuration not stated),1.6
CCC(=O)Nc1ccc(NC(=O)c2ccccc2Cl)nc1,0.9
CCOC(=O)C(C)n1cnc2c(nnn2-c2ccc(OC)cc2)c1=O (configuration not stated),0.6
Cc1ccc2c(c1)C(c1ccccc1)N(C(=O)C(C)C)CC(=O)N2 (configuration not stated),i
O=C(NCCC1=CCCCC1)C1CCN(c2nnc(-n3cccc3)s2)CC1,i
CCc1ccc(-c2nc(C(N)=O)c3[nH]c(=O)n(-c4ccccc4OC)c3n2)cc1,i
Cc1csc(=S)n1-c1ccccc1,i

# Copied from the list:
# `CCOC(=O)C(C)n1cnc2c(nnn2-c2ccc(OC)cc2)c1=O` (configuration not stated) in H5N1 antiviral shows 0.6
# `CCC(=O)Nc1ccc(NC(=O)c2ccccc2Cl)nc1` in H5N1 antiviral shows 0.9
# `CCn1c(=O)c2c3c(sc2n2c(=S)[nH]nc12)CCC3` in H5N1 antiviral shows 0.9

# (continued)
SMILES,H5N1 antiviral
O=C(O/N=C(\c1ccccc1)c1ccccn1)c1ccc(Cl)c(Cl)c1,i
O=c1c(Cl)c(NCCO)ncn1-c1ccccc1,i
COc1ccccc1C(=O)N(Cc1nc(-c2ccc(Cl)cc2)no1)C(C)C,1.6
Cc1ccc2c(CN3C(=O)NC4(CCCCC4)C3=O)cc(=O)oc2c1C,1.3
CC(OC(=O)c1cc[n+]([O-])cc1)C(=O)Nc1ccc(Cl)cn1 (configuration not stated),i
COc1ccc(/C=C2/C(=O)N=C(N)N2C)cc1OC,i
CCCn1nc2cc(C(=O)NCc3ccccc3)ccc2c1OCC,i
Cc1cc(C)nc(NS(=O)(=O)c2ccccc2)n1,0.3
CCC(C)NS(=O)(=O)c1ccc(NC(=O)c2c(-c3ccccc3)noc2C)cc1 (configuration not stated),2.5
CCOc1cc(CNCCCN2CCOCC2)cc(Br)c1OCC(=O)Nc1cccc(C(F)(F)F)c1,i
CCOc1ccc(-c2nnn(CC(=O)c3cc(OC)ccc3OC)n2)cc1,i
CCc1nc(C)c(C#N)c2cc(OC)c(OC)cc12,4.7
Cc1ccc(Nc2nc3nonc3[nH]c2=O)cc1C,0.6
CCCCCCOc1ccc(N2C(=O)CC(S/C(N)=N/N=C(\C)c3cccs3)C2=O)cc1 (configuration not stated),i
CCOC(=O)c1cccc(NC(=O)CSc2nnc(C)n2Cc2ccccc2)c1,0.4
COc1cc(-c2cc3nc(C)c(C)c(=O)n3[nH]2)cc(OC)c1OC,i
Cc1ccc2[nH]cc(C(=O)CN3CCC4(CC3)OCCO4)c2c1,i
Cc1cc(C(F)F)n2nc(C(=O)Nc3ccccc3F)nc2n1,1.3
COc1ccc(C(=O)c2ccc(OC)c(N)c2)cc1N,i
Cc1nn(-c2nc3ccccc3[nH]2)c(N)c1-c1ccc(Cl)cc1,i
COc1cc(CNc2nc(C)c([N+](=O)[O-])c(C)c2C#N)cc(OC)c1,i
CCOC(=O)N1CCN(c2cc(C)nc3nc(C)nn23)CC1,i
CN(C)c1nc(N)nc(/C(C#N)=C/C2CC3C=CC2C3)n1 (configuration not stated),i
Clc1ccc(-c2cn3cccnc3n2)cc1Cl,9.5
Cc1cc(NC(=O)c2cccc(N3C(=O)CCC3=O)c2)no1,0.7
COC(=O)c1ccc(CN2CCN(Cc3ccc(C(=O)OC)o3)CC2)o1,0.1
CCCC(=O)Nc1nc2n(n1)C(c1ccccc1)CC(=O)N2 (configuration not stated),0.3
O=C(CN1CCOCC1)Nc1ccc(Oc2ccccc2)cc1,i
O=C(CCc1ccccc1)NNC(=S)NC(=O)c1ccccc1,2.2
CCOC(=O)C(NC(=O)CC)(Nc1ccccc1OC)C(F)(F)F (configuration not stated),i

# Compounds above that have a thiophene ring, fused or not (5):
SMILES,H5N1 antiviral
CS/C(=N\S(=O)(=O)c1cccs1)Nc1ccc(N2CCOCC2)cc1,i
CN1CCN(/C=N/c2sc3c(c2C#N)CCCCC3)CC1,0.6
CCn1c(=O)c2c3c(sc2n2c(=S)[nH]nc12)CCC3,0.9
NC(=O)c1c(-c2cccs2)csc1N,2.1
CCCCCCOc1ccc(N2C(=O)CC(S/C(N)=N/N=C(\C)c3cccs3)C2=O)cc1 (configuration not stated),i

# Other records follow:
SMILES,H5N1 antiviral
Cc1ccc(NC2=CC(=O)CC(c3ccco3)C2)c(N)c1 (configuration not stated),0.8
N#CCCNC(=O)CCN1CCOCC1,i
Cc1ccc(-n2c(-c3ccc(Br)cc3)c[n+]3c2CCc2ccc4cccnc4c2-3)cc1,i
CCN(C1CCCCC1)S(=O)(=O)c1ccc(C(=O)O)cc1,i
CCOC(=O)CSc1nnc(-c2cccc(Cl)c2)n1CC,0.3
O=C1C2C3C=CC(C3)C2C(=O)N1/N=C/c1cn(Cc2ccccc2)c2ccccc12 (configuration not stated),i
COc1cccc2c(=O)c(SC(F)(F)C(F)C(F)(F)F)c(C)[nH]c12 (configuration not stated),i
Cc1ccc(NC(=O)CSc2nnc(-c3ccncc3)o2)cc1,i
Cc1ccc(CNC(=O)CN2CCN(Cc3ccc(C)cc3)C2=O)cc1,i
CCOC(=O)N1CCN(C(=O)C2CCN(S(C)(=O)=O)CC2)CC1,i
O=C(CCSc1ccccc1)Nc1nccs1,i
Cc1ccc(S(=O)(=O)Nc2nc(C)cc(-n3nc(C)cc3C)n2)cc1,0.3
O=C(Cc1cccs1)N1CCC(c2nc3c(nnn3Cc3ccccc3)c(=O)[nH]2)CC1,5.4
COc1ccc2[nH]c(=O)c(CN(CCc3ccccc3)Cc3nnnn3CC3CCCO3)cc2c1 (configuration not stated),2.4
COc1ccc(C(=O)c2sc(Nc3cccc(OC)c3)c(C(=O)Nc3cccc(C)c3C)c2N)cc1,i
O=C(Nc1nc2ccccc2n1CCN1CCCC1)c1ccc(Cl)cc1,i
O=C(C[n+]1ccc(C(=O)N/N=C/c2ccc(Br)cc2)cc1)c1ccccc1,i
O=C(NC12CC3CC(CC(C3)C1)C2)c1ccccc1O,9.8
O=C(Nc1cccnc1)c1ccc(COc2cc(Cl)ccc2Cl)o1,0.3
CC(C)C(NC(=O)C12CC3CC(CC(C3)C1)C2)C(=O)O (configuration not stated),0.3
O=c1nc(N2CCCCC2)nc(Nc2ccccc2)[nH]1,0.1
O=C(c1cc2ccccn2n1)N1CCN(Cc2ccccc2)CC1,1.6
CC(C)C1N=C2c3ccccc3N=C(SCC(=O)NCCc3ccc(S(N)(=O)=O)cc3)N2C1=O (configuration not stated),1.1
CC(=O)Nc1nnc(SCC(=O)NC(C)(C)C)s1,0.5
O=C1N/C(=C\c2ccc(N3CCOCC3)c(F)c2)C(=O)N1Cc1ccccc1,i
COc1nc(-c2ccccc2)ccc1-c1noc(-c2ccco2)n1,i
COc1ccc(COC(=O)NC2CCN(S(=O)(=O)c3ccc(OC)cc3)CC2)cc1,0.2
Cc1cccc(C)c1NC(=O)C(c1ccccc1)N1CCC1=O (configuration not stated),0.1
O=C(CSc1nc2ccccc2nc1SCC(=O)N1CCCCC1)N1CCCCC1,0.7
COc1ccc(C(=O)NC2CCN(S(=O)(=O)Cc3ccccc3)CC2)c(OC)c1,i
CCOc1ccc(C(C)=O)cc1Cn1nc(C(=O)O)c2ccccc2c1=O,i
Cc1ccc(S(=O)(=O)N2CCCC2C(=O)O)s1 (configuration not stated),0.8
CCOc1ccc(CCN2C(=O)C3C4C=CC(C4)C3C2=O)cc1OCC (configuration not stated),0.3
COc1cccc(NC(=O)c2cc(-c3cccnc3)nc3c(Cl)cccc23)c1,i
CN(C(=O)COc1cc(=O)n(C)c2ccccc12)c1ccc(Br)cc1,1.9
CC(C)C(=O)Nc1cccc(NC(=O)c2cccc([N+](=O)[O-])c2)c1,1.5
CC(C)CCOc1ccc(C(=O)CCNC(C)C(=O)O)cc1 (configuration not stated),i
Cc1ccc(-c2[nH]nc3c2C(c2ccc(OC(=O)N4CCOCC4)cc2)C(C#N)=C(N)O3)cc1 (configuration not stated),i
CC(C(=O)O)c1cccc(C(=O)c2ccccc2)c1 (configuration not stated),i
O=C(Nc1ccc2c(c1)CCC2)C1COc2ccccc2O1 (configuration not stated),i
O=C(NCCN1CCOCC1)c1ccc2ccccc2c1,i
COc1ccc(NC(C)C(=O)N/N=C/c2ccccc2OCc2ccc(Br)cc2)cc1 (configuration not stated),i
O=S(=O)(c1ccc2ccccc2c1)N(CC(O)CN1CCOCC1)c1ccccc1 (configuration not stated),i
COc1ccc(S(=O)(=O)N2CCCCCC2)cc1,i
O=C(COC(=O)c1ccccc1OCc1ccccc1Cl)NC1CC1,i

# In the list so far, 6 have a CF3 group.
SMILES,H5N1 antiviral
O=C(COC(=O)c1ccc2ccccc2c1)Nc1ncc(C(F)(F)F)cc1Cl,1.8
O=c1[nH]c(=O)n(Cc2ccccc2)c2nc(-c3ccco3)cc(C(F)(F)F)c12,5.2
COc1cccc2c1C(=O)CC2NC(=O)C(F)(F)F (configuration not stated),i
CCOc1cc(CNCCCN2CCOCC2)cc(Br)c1OCC(=O)Nc1cccc(C(F)(F)F)c1,i
CCOC(=O)C(NC(=O)CC)(Nc1ccccc1OC)C(F)(F)F (configuration not stated),i
COc1cccc2c(=O)c(SC(F)(F)C(F)C(F)(F)F)c(C)[nH]c12 (configuration not stated),i

# Further results.
SMILES,H5N1 antiviral
CC1CCCCC1NC(=O)c1cn(C)c2ccc(S(=O)(=O)N3CCCC3)cc2c1=O (configuration not stated),0.9
Cc1ccccc1CS(=O)(=O)Cc1ccc(C(=O)N2CCOCC2)o1,i
CCCC(=O)Nc1ccc2c(c1)C(=O)N(CCC(=O)O)C2=O,0.4
COc1ccc(S(=O)(=O)NCCN2CCOCC2)c2ccccc12,0.8
CC(=O)N1CCc2cc(C(=O)CN3CCN(c4cccc(Cl)c4)CC3)ccc21,1.8
CCOC(=O)CSc1cc(CS(=O)(=O)c2ccccc2)nc(-c2ccccc2)n1,i
COc1ccc(NC(=O)CSc2nc3ccccc3c(=O)n2CCCN2CCCCC2)c(OC)c1,i
COc1ccc(C2CC(=O)C3=C(C2)Nc2ccccc2N(C(C)=O)C3c2ccco2)cc1 (configuration not stated),i
Cc1ccc(/C=C2/SC(=S)N(CC(=O)Nc3ncc(Cc4ccc(C)cc4)s3)C2=O)cc1,0.6
CCCCNC(=S)NNC(=O)c1cc(C)on1,i
CC(C)COC(=O)Cn1cnc2ccc(Br)cc2c1=O,1.4
CCOC(=O)N1CCN(Cc2nc(-c3cccc(C)c3)no2)CC1,i
OCCN(CCO)CC(O)COCCC12CC3CC(CC(C3)C1)C2 (configuration not stated),1.3
COC(=O)/C(C#N)=C1/SC=C(C)N1c1ccccc1,4.5
Cc1c(C(=O)OCCOC(C)C)[nH]c2c1C(=O)CC(c1ccco1)C2 (configuration not stated),i

# Screens deposited in PubChem by SRMLSC.
